Screens (PubChem BioAssay)
GLA inh pH 4.5 – qHTS Assay for Inhibitors of Human alpha-Galactosidase at pH 4.5; AID 1467, 2008; Alpha-galactosidase A (Homo sapiens), P06280; 230,000 tested, under 10 active; activity change, negative = inhibition, % at 105 µM; purified enzyme, 4-MU-alpha-Gal fluorescence, pH 4.5; inconclusive = small, poorly fitted or top-dose-only inhibition, or a rising curve; inactive = flat fitted curve, though single readings scatter; no compound was filed as active;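 note: 0% = full activity with enzyme and -100% = basal without enzyme; dose as in the result columns while the protocol names 77 µM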
Rango dissoc inh – qHTS Assay for Inhibitors of RanGTP induced Rango (Ran-regulated importin-beta cargo) - Importin beta complex dissociation; 340,000 compounds, 0.071% hits; Potency, µM (series often up to 46.1 µM), for the others: at the highest dose activity change, negative = inhibition; Biochemical FRET Rango-importin beta, RanGTP-induced dissociation; active means falling FRET ratio curve, often poorly fitted, with flat reads before Ran was added; inconclusive means other falling curves, or compound fluorescence or quenching; inactive means flat or rising ratio curve;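 note: potency is the fitted concentration of half-maximal effect; % of control where 0% means no effect; nearly all actives have a fitted effect of over 45% in size; -100% = wells without RanGTP and RCC1; the record marks most hits as doubtful in a second field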
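Two FRET readings bracket the reaction: one 5 min after compound meets Rango–importin beta, another 45 min after RanGTP-RCC1 (0.6 uM Ran, 0.2 uM RCC1, 2 mM GTP) is added. Only the second defines inhibition.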
miR-21 FLuc – qHTS Assay for Modulators of miRNAs and/orActivators of miR-21; HeLa miR-21 FLuc reporter, luciferase, 48 h; Potency, µM (titrated, usually from 38.3 µM), for the others: top-dose reporter change, positive = more light; 340,000 tested, under 10 active; active = well fitted rising curve with a large enough effect; inconclusive = small, poorly fitted or top-dose-only effect; inactive = no such curve, though single readings can be large or run the other way;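 note: % of control where 0% means no effect; miR-21 action dims this reporter so a rising signal means less miR-21 action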
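Compounds were titrated across several concentrations (up to approximately 40 uM) and incubated 48 hours with HeLa miR-21-FLuc reporter cells (miR-21 target sequence downstream of FLuc, endogenous miR-21). Readout was firefly luciferase luminescence after lytic detection reagent.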
Rango complex inh – qHTS Assay for Inhibitors of Rango (Ran-regulated importin-beta cargo) - Importin beta complex formation. AID 540263, 2011. Potency, µM (doses to about 92.2 µM), for the others: at the highest dose inhibition of complex formation. Importin subunit beta-1 (Homo sapiens), Q14974. 340,000 compounds, 0.031% hits. Rango CFP/YFP FRET sensor + importin beta, 45 min; active = rising FRET ratio curve, often small or poorly fitted; inconclusive = mostly compound fluorescence or quenching in the first reads; inactive = flat curves in all reads;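 note: potency is the fitted concentration of half-maximal effect; 0% = DMSO wells and 100% = buffer wells lacking importin beta; nearly all actives have a fitted effect of over 15% in size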
Target sequence (Q14974 whole entry, looked up): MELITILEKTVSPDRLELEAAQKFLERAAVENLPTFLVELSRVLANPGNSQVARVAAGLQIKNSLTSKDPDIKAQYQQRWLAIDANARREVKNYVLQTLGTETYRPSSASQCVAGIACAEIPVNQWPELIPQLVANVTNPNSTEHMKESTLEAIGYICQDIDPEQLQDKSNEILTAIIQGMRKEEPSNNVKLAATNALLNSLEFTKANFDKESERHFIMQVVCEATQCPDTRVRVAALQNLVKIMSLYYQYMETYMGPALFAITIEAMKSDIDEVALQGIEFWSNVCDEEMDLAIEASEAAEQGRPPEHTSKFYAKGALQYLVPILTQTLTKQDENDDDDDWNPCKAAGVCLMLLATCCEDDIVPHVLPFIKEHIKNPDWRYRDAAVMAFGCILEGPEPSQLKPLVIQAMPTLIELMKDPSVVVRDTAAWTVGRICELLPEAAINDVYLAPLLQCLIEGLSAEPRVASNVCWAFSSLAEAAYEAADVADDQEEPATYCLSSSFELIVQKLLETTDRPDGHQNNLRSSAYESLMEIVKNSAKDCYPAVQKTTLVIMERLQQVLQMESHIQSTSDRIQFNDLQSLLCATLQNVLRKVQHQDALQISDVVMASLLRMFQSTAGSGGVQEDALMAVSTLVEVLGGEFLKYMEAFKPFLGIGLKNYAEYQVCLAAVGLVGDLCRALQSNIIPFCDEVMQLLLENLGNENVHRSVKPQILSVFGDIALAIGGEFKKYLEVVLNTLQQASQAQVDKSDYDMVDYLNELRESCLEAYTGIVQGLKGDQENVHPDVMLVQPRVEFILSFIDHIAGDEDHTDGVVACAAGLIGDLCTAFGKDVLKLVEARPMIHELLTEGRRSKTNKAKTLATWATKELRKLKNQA
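FRET biosensor Rango (snurportin 1 IBB between N-terminal EYFP and C-terminal Cerulean), 50 nM in PBS/1 mM DTT/0.02% Tween-20/0.1% BSA, preincubated 5 min RT with compound; 0.125 microM importin beta added, 45 min RT, CFP/YFP FRET ratio read.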
Starred values were filed as active, the others as inactive; ? = inconclusive; / = no result given; & = joins results of further samples; [ ] = dose if it differs, or a comment. These rows are one share of the data, so the mix of outcomes need not match the whole.

SMILES	GLA inh pH 4.5	Rango dissoc inh	miR-21 FLuc	Rango complex inh
O=C(NCCc1c[nH]c2ccccc12)c1ccc(S(=O)(=O)NCc2ccco2)cc1	-16	-15%	3%	-3.5%
Cc1ccc(-n2c(SCC(=O)Nc3ccc4c(c3)OCO4)nnc2-c2ccccn2)cc1	0	7%	-1%	4.7%
CCn1c(=O)c(C(=O)CN2CC(C)OC(C)C2)c(N)n(Cc2ccccc2)c1=O (stereo not given)	-1	8%	-4%	-6.0%
CC1=C(C/C=C(\C)CCCC(C)CCCC(C)CCCC(C)C)C(=O)c2ccccc2C1=O (stereo not given)	0	-11%	/	-3.2%
CCCCN(CCCC)CCNC(=O)c1cn(CC)c2ccc(S(=O)(=O)N3CCCC3)cc2c1=O	/	0%	0%	3.6%
CN(c1ccccc1)C(c1ccc(F)cc1)c1nnnn1CC1CCCO1 (stereo not given)	-6	12%	-10%	2.2%
CCCCn1c(N)c(N(CC)C(=O)c2cc(CC)c(C)s2)c(=O)[nH]c1=O	/	-1%	/	0.1%
Cc1ccc(-n2c(SCC(=O)Nc3cccc(S(N)(=O)=O)c3)nc3ccccc32)cc1	-23	0%	18%	2.4%
COc1ccc(-c2nnc(SCC(=O)N3CCCc4ccccc43)o2)cc1OC	-5	-14%	-2%	0.3%
Cc1nccn1CC(=O)N/N=C/c1ccccc1O	0	-8%	3%	-2.2%
C/C(=N\Nc1ccc(Cl)c(Cl)c1)c1ccc(-n2ccnc2)cc1	-5	7%	-24%	-4.1%
CC1=C(NCCc2ccccc2)CCC1=O	5	-1%	3%	?
COc1ccc(C(=O)Nc2nc3ccccc3s2)cc1	/	19%	?	0.3%
O=C(COC(=O)CC1SC(N2CCCC2)=NC1=O)Nc1c(F)c(F)c(F)c(F)c1F (stereo not given)	/	-9%	/	6.6%
CCCCn1c(N)c(N(CCC(C)C)C(=O)c2sc3nc4n(c(=O)c3c2C)CCC4)c(=O)[nH]c1=O	/	0%	-2%	-2.1%
CN1CC2CCCC3(C1)C(=O)NC1(CCCCC1)N=C23 (stereo not given)	-5	-2%	4%	0.4%
COc1ccc(NS(=O)(=O)c2cc3c(cc2C)N(C)CCO3)cc1	/	5%	1%	-1.2%
COc1ccc(NC(=O)C2CCCNC2)cc1OCC(C)C (stereo not given)	-3	-9%	-11%	0.0%
O=C(O)CSc1nnc(-c2ccccc2)o1	6	-13%	12%	-0.1%
CS(=O)(=O)N1CCc2cc(C(=O)N3CCN(c4cccc(Cl)c4)CC3)ccc21	/	?	5%&12%	-3.2%
N#Cc1c2c(c(N3CCN(CCO)CC3)n3c1nc1ccccc13)CCCC2	1	/	3%	/
COc1ccc(C2C(Oc3ccccc3)C(=O)N2c2ccc(C)c(C)c2)cc1OC (stereo not given)	/	2%	/	-1.4%
COc1ccccc1/C=C/C(=O)N1CCOCC1	-8	-4%	-10%	4.5%
CCN(CC)c1ccc2cc(-c3nc(-c4ccc(OC)cc4)cs3)c(=O)oc2c1	-18	?	-15%	?
Cc1cccc(C)c1NC(=O)CCn1cnc2ccccc2c1=O	4	-1%	-2%	-1.1%
Cc1ccccc1C(=O)Oc1cc(N)n(S(C)(=O)=O)n1	3	8%	-3%	2.1%
CSc1ccccc1C(=O)NCc1ccc2c(c1)OCO2	6	13%	-19%	-3.6%
O=C(Nc1ccc(C(F)(F)F)cc1)C1CCCN1S(=O)(=O)c1cccc2cccnc12 (stereo not given)	-5	-8%	24%	1.0%
COC(=O)CCCCCCCCC(=O)Nc1nc2ccccc2s1	-3	9%	-5%	-1.7%
CC(=O)c1c(O)cc(C)n(-c2ccc(F)cc2)c1=O	2	-1%	-3%	1.4%
COc1ccc(-c2oc3cccnc3c2-c2ccc(OC)nc2)cc1	/	-9%	-36%	0.5%
Cc1ccc(C(=O)Nc2ccccc2SCC2CSc3nc4ccccc4c(=O)n32)cc1 (stereo not given)	-3	-6%	17%	-2.0%
COC(=O)C1(O)CC(C(C)C)=NN1C(=O)c1ccccc1 (stereo not given)	-7	5%	0%	-0.4%
CN1CCN(C(=S)c2cn(Cc3ccccc3F)c3ccccc23)CC1	-9	12%	-20%	0.2%
Cc1nc(SCC(=O)NCc2ccco2)c2c(=O)n(C)c(=O)n(CC(C)C)c2n1	8	/	0%	/
O=S(=O)(c1ccc(-c2ccno2)s1)N1CCCCC1	/	-5%	-4%	-3.6%
Cc1ccc2c(c1)[C@H]1[C@H](CO2)[C@H](c2ccccc2)[C@]2(C)C(=O)N(CC3CCCO3)CC(=O)N12 (stereo not given in full)	/	1%	/	-1.2%
COc1ccc(-c2nnc(NC(=O)c3ccc([N+](=O)[O-])o3)o2)c(OC)c1	/	-3%	4%	8.2%
COC(=O)c1nnn(-c2ccsc2C(=O)OC)c1C(=O)OC	-5	-6%	5%	-1.1%
CCc1ccccc1NC(=O)CN1CCN(C(=O)CNC(=O)Cc2cccc3ccccc23)CC1	/	-13%	/	?

Part of the list above, showing only Rango dissoc inh, Rango complex inh and GLA inh pH 4.5:
SMILES | Rango dissoc inh | Rango complex inh | GLA inh pH 4.5
COC(=O)C1(O)CC(C(C)C)=NN1C(=O)c1ccccc1 (stereo not given) | 5% | -0.4% | -7
CN1CCN(C(=S)c2cn(Cc3ccccc3F)c3ccccc23)CC1 | 12% | 0.2% | -9

Further entries:
SMILES	GLA inh pH 4.5	Rango dissoc inh	miR-21 FLuc	Rango complex inh
COc1ccc2c(c1)[C@@H]1[C@H](CO2)[C@H](c2ccccc2)[C@]2(C)C(=O)NCC(=O)N12	/	1%	/	1.1%
O=C(c1cccc(S(=O)(=O)N2CCOCC2)c1)N1CCCC(C(F)(F)F)C1 (stereo not given)	/	-8%	/	-2.4%
O=S(=O)(c1ccccc1)N1N=C(c2ccccc2)CC1c1ccccc1F (stereo not given)	/	12%	-13%	-0.6%
CC1(C)OC(c2ccccc2)=C/C(=C/C=N/NC(=O)c2ccncc2)O1	-4	9%	19%	0.9%
Cc1ccccc1NC(=O)C(C)Sc1nnc(-c2ccncc2)n1CC1CCCO1 (stereo not given)	/	0%	-2%	-1.2%
Cc1ccc(NC(=O)CN(C)C(=O)C(C)OC(=O)c2ccccc2NCCO)cc1 (stereo not given)	/	4%	/	2.2%
CCCCCCSc1cc(-c2nc3cc(C)ccn3c2NCCCC)ccc1OC	/	-11%	/	?
COC(=O)c1sccc1NC(=O)c1ccc(Cl)cc1	/	1%	1%	-4.5%
CC1(C)CCC(=O)N2CC[C@H]3C[C@H](OC(=O)Nc4ccc5c(c4)OCO5)C[C@@H]1[C@H]32	/	4%	-17%	0.0%
CCOc1ccc(Br)cc1CNCCN1CCOCC1	4	23%	-15%	0.5%
N#Cc1nc(-c2ccc(F)cc2)oc1NCCN1CCOCC1	8	-10%	-22%	-1.1%
C#CCOCCOCCOCCNc1nc(N2CCN(C(=O)CCCCCCCCCCNC(=O)Cn3cc(C[C@@H](C)O)nn3)CC2)nc(N2CCN(C(=O)CCCCCCCCCCNC(=O)[C@@H]([C@H](C)CC)n3cc(CCCCCN)nn3)CC2)n1	/	1%	/	15%
COc1ccc(OC)c(-c2nnc(SCC(=O)NC3CCCCC3)o2)c1	5	-7%	-10%	2.6%
CCOc1ccc(CNCCNC(=O)c2nonc2N)cc1	3	3%	2%&0%	-2.2%
CCCCOc1ccccc1C(=O)NCC(=O)O	4	-11%	-3%	-2.7%
Cc1cc(C(=O)NCCc2ccc(Cl)cc2)n(-c2ccccc2)n1	-19	-25%	2%	-0.8%
NNC(=O)CNC(c1ccccc1)c1cc(Br)ccc1NC(=O)CCN1CCOCC1 (stereo not given)	2	6%	-3%	?
CC(=O)c1ccc(-n2c(SCC(=O)c3c[nH]c4ccccc34)nc3ccccc3c2=O)cc1	3	-6%	3%	-2.9%
O=C(O)c1ccc(S(=O)(=O)Cc2ccccc2)cc1	5	-3%	0%	1.8%
CCCOc1ccc(-c2nc(-c3ccc([N+](=O)[O-])cc3)cs2)cc1	-4	-9%	-9%	4.4%

Structural class: the entries above containing two or more sulfur atoms.
SMILES	GLA inh pH 4.5	Rango dissoc inh	miR-21 FLuc	Rango complex inh
Cc1ccc(-n2c(SCC(=O)Nc3cccc(S(N)(=O)=O)c3)nc3ccccc32)cc1	-23	0%	18%	2.4%
Cc1ccc(C(=O)Nc2ccccc2SCC2CSc3nc4ccccc4c(=O)n32)cc1 (stereo not given)	-3	-6%	17%	-2.0%
O=S(=O)(c1ccc(-c2ccno2)s1)N1CCCCC1	/	-5%	-4%	-3.6%

The list goes on:
SMILES	GLA inh pH 4.5	Rango dissoc inh	miR-21 FLuc	Rango complex inh
COc1cccc(/C=N/Nc2snc(SC)c2C#N)c1O	-2	?	7%	?
Cc1nc(NCCO)c2nnn(Cc3ccccc3F)c2n1	-4	-14%	-9%	0.2%
O=C(Nc1ccc(C(=O)N2CCCC2)cc1)c1ccc2c(c1)OCO2	2	-2%	-37%	-2.1%
COc1cccc(-c2nnn(CC(=O)O)n2)c1	3	?	-4%	5.6%
Cc1cc(=O)n(-c2ccc3ccccc3n2)[nH]1	-3	18%	-21%	4.8%
CCCc1cc(N2CCCC(C(=O)Nc3ccc(OC)cc3OC)C2)n2ncnc2n1 (stereo not given)	-3	4%	-9%	?
CC1CCC(NC(=O)CCNC(=O)c2ccccc2)CC1 (stereo not given)	4	-7%	-5%	0.2%
COc1ccc(C(=O)NNC(=O)c2ccc3ccccc3n2)cc1	/	5%	/	0.4%
Cc1cc(C)c2nc(SCC(=O)Nc3cc(C)on3)c(C)cc2c1	/	6%	1%	2.2%
Cc1ccc([N+](=O)[O-])cc1NC(=O)C(C)N1CCCCC1 (stereo not given)	-1	13%	4%	3.2%
COC(=O)c1cc2c(cc1[N+](=O)[O-])OCO2	-1	-10%	-3%	-2.9%
Cc1sc2nc(CSc3ccccc3)nc(N3CCOCC3)c2c1C	-1	0%	-23%	1.0%
Cc1onc(C(=O)NC(C)c2ccccc2)c1[N+](=O)[O-] (stereo not given)	-8[21.1 µM]	0%	2%	-5.1%

Copied from above for reference:
SMILES	GLA inh pH 4.5	Rango dissoc inh	miR-21 FLuc	Rango complex inh
Cc1ccc([N+](=O)[O-])cc1NC(=O)C(C)N1CCCCC1 (stereo not given)	-1	13%	4%	3.2%
COC(=O)c1cc2c(cc1[N+](=O)[O-])OCO2	-1	-10%	-3%	-2.9%
Cc1sc2nc(CSc3ccccc3)nc(N3CCOCC3)c2c1C	-1	0%	-23%	1.0%
Cc1onc(C(=O)NC(C)c2ccccc2)c1[N+](=O)[O-] (stereo not given)	-8[21.1 µM]	0%	2%	-5.1%
